Source: PubChem (National Center for Advancing Translational Sciences (NCATS))
Cruzain inh Det: blocks cruzain activity in presence of Triton detergent | P25779 | purified cruzain, Z-FR-AMC fluorescence, 0.01% Triton | Potency, µM, for the others: max response, negative = inhibition, most hits filed as inhibitors | 0.43% of 200,000 active;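 also: plate controls were neutral wells for no effect and buffer without enzyme for full effect; nearly all actives have a fitted effect of over 40% in size; top concentration of the series not given in the record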
Target sequence (P25779 123-467 limits assumed): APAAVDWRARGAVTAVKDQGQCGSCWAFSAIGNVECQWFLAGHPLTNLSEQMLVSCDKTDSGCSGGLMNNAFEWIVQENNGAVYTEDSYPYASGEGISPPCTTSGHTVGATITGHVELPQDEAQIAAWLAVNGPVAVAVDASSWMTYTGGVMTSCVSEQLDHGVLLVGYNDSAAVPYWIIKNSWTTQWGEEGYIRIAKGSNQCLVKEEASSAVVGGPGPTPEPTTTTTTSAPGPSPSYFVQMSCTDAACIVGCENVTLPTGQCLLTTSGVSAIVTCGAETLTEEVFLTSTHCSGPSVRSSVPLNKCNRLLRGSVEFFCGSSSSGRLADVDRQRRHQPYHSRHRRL
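Steps: dispense cruzain (1.5 nM final) in acetate buffer pH 5.5 with DTT and 0.01% Triton X-100; pin-transfer compounds; incubate 15 min RT; add Z-FR-AMC (2 uM final); read fluorescence every 30 s, using the 60 s intensity change.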
NS1 inh: blocks influenza NS1 protein function | S. cerevisiae slowed by influenza A NS1, growth recovery by OD600 | Potency, µM (doses to about 46.1 µM), for the others: top-dose activity, positive = more growth | 0.4% of 270,000 active; active means well fitted rising curve with a large enough effect; inconclusive means small, poorly fitted or top-dose-only effect; inactive means no such curve, though single readings can be large or run the other way; also: nearly all actives have a fitted effect of over 50% in size
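Compounds were scored for reversing the slow growth caused by influenza A NS1 in S. cerevisiae, measured by optical density at 600 nm. Assay medium contained 2% galactose at pH 6.0; NS1-free yeast of the same strain were the positive control.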
SARS PLpro yeast: SARS-CoV PLP inhibition in yeast; S. cerevisiae expressing SARS-CoV PLpro, growth rescue; control for the full effect not named in the record; Potency, µM (highest dose often 32.9 µM), without a hit: top-dose activity, positive = growth rescue; 0.19% of 330,000 active; active means well fitted rising curve with a large enough effect; inconclusive means small, poorly fitted or top-dose-only effect; inactive means no such curve, though single readings can be large or run the other way; also: 0% is about no effect; nearly all actives have a fitted effect of over 55% in size; growth read by luminescence after 48 h
RE007 growth inh: less growth of the S. pombe RE007 Vpr strain. S. pombe RE007 Vpr strain, BacTiter-Glo ATP luminescence, 24 h; control for the full effect not named in the record. Potency, µM (series often up to 92.2 µM), for the others: at the top dose activity change, negative = less growth. 0.21% of 360,000 active; active = well fitted falling curve with a large enough effect; inconclusive = small, poorly fitted or top-dose-only effect; inactive = no such curve, though single readings can be large or run the other way;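 also: % is scaled to controls: 0 for no effect and ±100 for the full control effect; nearly all actives have a fitted effect of over 50% in size; the assay follows cell death caused by Vpr and the record does not say whether a fall means rescue or toxicity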
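Fission yeast strain RE007, carrying one chromosomally integrated HIV-1 vpr copy, was seeded at OD 0.01 in PMG+AL medium with 23 nL pinned compound. After 24 h at 30 °C and 99% humidity, viability was read by BacTiter-Glo luminescence.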
Cruzain noTriton: inhibitors of Trypanosoma cruzi cruzain without detergent | Potency, µM, for the others: max response, negative = inhibition, usual class: inhibitors | P25779 | purified cruzain, Z-FR-AMC fluorescence, no detergent | 2.3% of 200,000 active;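 also: plate controls were enzyme without inhibitor for no effect and buffer without enzyme for full effect; nearly all actives have a fitted effect of over 40% in size; top concentration of the series not given in the record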
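Detergent-free condition (0.00005% Triton X-100) in acetate buffer pH 5.5 with DTT. 1.5 nM enzyme and compound were pre-mixed 15 min, then 2 uM Z-FR-AMC substrate added; reaction progress from fluorescence change between first and third reads (60 s).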
Lassa entry inh: blocks Lassa virus binding to or entry into cells; Lassa virus pseudotype entry inhibition, cell reporter; control for the full effect not named in the record; 1.2% of 300,000 active; Potency, µM (highest dose often 37.9 µM), for inactives: at the top dose activity change, negative = inhibition, hits mostly inhibitors; active means well fitted inhibition curve with a large enough effect; inconclusive means small, poorly fitted or top-dose-only effect, or effect the other way; inactive means flat fitted curve, though single readings scatter; tested in HEK293 cells; also: % is scaled to controls: 0 for no effect and ±100 for the full control effect; nearly all actives have a fitted effect of over 50% in size; luciferase read-out
MARV entry inh: blocks Marburg virus binding to or entry into cells; Marburg virus pseudotyped entry inhibition, cell reporter; control for the full effect not named in the record; about a third of the inactives were read at about 46 µM; Potency, µM (series often up to 37.8 µM), for the others: at the highest dose activity change, negative = inhibition, usual class: inhibitors; 1.8% of 300,000 active; AID 540276; active = well fitted inhibition curve with a large enough effect; inconclusive = small, poorly fitted or top-dose-only effect, or effect the other way; inactive = flat fitted curve, though single readings scatter; tested in HEK293 cells; about a fifth of its hits are not listed in these tables; also: % is scaled to controls: 0 for no effect and ±100 for the full control effect; luciferase read-out
2A StopGo: FMDV 2A StopGo reporter, luciferase signal; human cells with a luciferase reporter of 2A StopGo recoding; control for the full effect not named in the record; Potency, µM (series often up to 57.9 µM), for inactives: top-dose signal change, negative = less light; 1.2% of 410,000 active; AID 1159524; active = well fitted falling curve with a large enough effect; inconclusive = small, poorly fitted or top-dose-only effect; inactive = no such curve, though single readings can be large or run the other way; tested in HEK293T cells; also: % is scaled to controls: 0 for no effect and ±100 for the full control effect; nearly all actives have a fitted effect of over 45% in size; luciferase light after 4 h
An asterisk follows results filed as active; ? = inconclusive; / = not tested or not shown; [ ] = dose if it differs, or a comment. Unless noted, calls follow the shape of the dose curve; as a rule, active = well fitted curve in the direction sought with a large enough effect; inconclusive = small, poorly fitted or top-dose-only effect, or another doubt; inactive = no such curve, though single readings can be large; an effect the other way counts as inactive or inconclusive. Potency is read from the fitted curve at half-maximal effect.

SMILES	Cruzain inh Det	NS1 inh	SARS PLpro yeast	RE007 growth inh	Cruzain noTriton	Lassa entry inh	MARV entry inh	2A StopGo
O=S(=O)(c1ccc(F)cc1)N1CCn2c(nc3ccccc32)C1	18µM*	0%	-4%	3%	5µM*	/	/	-22%
O=C(O)c1ccccc1N/N=C/c1cc(Br)cc(Br)c1O	/	0%	-2%	3%	/	?	15µM*	-2%
CC(C)(C)C(=O)Nc1nnc(-c2ccccc2)c(-c2ccccc2)n1	/	-12%	-1%	-7%	/	-2%	8%	31%[activator]
O=C(NC1CCCCC1)c1c(O)nc2sccn2c1=O	/	/	-21%	-28%	/	1%	0%[46.1 µM]	11%
CCOC(=O)COc1ccc(S(=O)(=O)NCC2CCCO2)cc1 (stereo not given)	0.5%	4%	?	-2%	-4%	?	1%	38%[activator]
CCc1nc(SCc2ccccc2C#N)n[nH]1	/	2%	1%	38%	/	9%	7%	6%
CC(=O)c1cc2c(cc1NC(=O)c1cc(C)nn1-c1ccccc1)OCO2	-2.7%	-4%	0%	-2%	12%	?	-3%	?
O=C(COC(=O)CCc1c[nH]c(=O)[nH]1)Nc1ccccc1Cl	0.5%	1%	1%	-2%	-20%	-15%	-9%	21%
CC1(C)N=C(SCC(=O)Nc2ccc(Cl)cc2)C(c2ccc(Cl)cc2)=N1	-2.1%	-126%	-39%	-21%	11%	-4%	-24%	22µM*
Cc1nn(-c2cccc(Cl)c2)c2nc(-c3cccnc3)cc(C(F)(F)F)c12	0.8%	/	/	/	-11%	16%[46.1 µM]	8%[46.1 µM]	-13%
COc1ccc(C2CC(=O)C(C=NCCN3CCN(C(C)=O)CC3)=C(O)C2)cc1OC (stereo not given)	2.2%	12%	0%	/	-11%	/	/	/
CCOc1ccc(OCC)c(NC(=O)c2cc(S(=O)(=O)N3CCc4ccccc43)cn2C)c1	-5.5%	/	/	/	-12%	-5%[46.1 µM]	/	-9%
CC(=O)N1c2c(cc(Br)cc2S(=O)(=O)N2CCN(c3cc(C)ccc3C)CC2)CC1C (stereo not given)	-5.5%	/	/	/	3%	?	-14%[46.1 µM]	0%
CCCCn1c(C)nc2c(=O)n(C)c(=O)[nH]c21	3.3%	-3%	18%	-8%	-10%	-9%	22%	-3%
Cc1ccc(-n2c(C)cc(/C=C(\C#N)C(=O)Nc3ccc(C)c(C)c3)c2C)cc1	1.2%	/	/	/	-17%	12%[46.1 µM]	?	0%
Cc1c(NS(=O)(=O)c2ccc(NCCN3CCOCC3)c([N+](=O)[O-])c2)c(=O)n(-c2ccccc2)n1C	/	9%	0%	-1%	/	/	-1%	8%
O=C(O)C1=C[C@@H](c2coc3ccccc3c2=O)C[C@@H](OCCCCO)O1	/	0%	0%	14%	/	/	/	-5%
O=C(N/C(=C\c1ccco1)C(=O)N1CCCCC1)c1ccc([N+](=O)[O-])cc1	/	/	3%	31%	/	15%	-9%	0%
CCOC(=O)C1=C(C)NC(=O)NC1c1ccc(NC(C)=O)cc1 (stereo not given)	0.0%	3%	-4%	14%	12%	?	1%	/
COC(=O)c1cn(C(=O)c2ccc(OC)cc2)c2ccccc12	/	-18%	-9%	-2%	/	-20%[46.1 µM]	?	-22%
Cc1onc(-c2c(F)cccc2Cl)c1C(=O)Nc1ccc(S(=O)(=O)N2CCOCC2)cc1	/	/	5%	58%	/	-26%	?	-18%
Cc1cc(C)cc(-n2c(=O)[nH]c3ccccc3c2=O)c1	-1.8%	/	/	/	7%	0%[46.1 µM]	24%[46.1 µM]	-14%
COC(=O)c1sccc1NC(=O)c1ccc(C)o1	-3.2%	-88%	-5%	?	7%	0%	4%	-19%
CCn1cc(CN2CCC(n3nccc3NC(=O)C3CCCC3)CC2)c(C)n1	/	2%	-3%	4%	/	?	-9%	0%
O=C(CCSc1nnc2scc(-c3ccccc3)n12)Nc1nc(-c2ccccc2)ns1	5.5%	-2%	4%	-24%	?	0%	-4%	0%
Nc1c(C(=O)NCCC2=CCCCC2)sc2ccc(S(=O)(=O)N3CCCCC3)cc12	3.5µM*	?	3%	-5%	13µM*	?	?	-17%
COc1ccc(-c2nc(CSCC(=O)N3CCN(C)CC3)c(C)o2)cc1OC	2.8%	7%	3%	-7%	-10%	/	/	5%
COc1cccc(OC)c1OCCN1CCN(C(c2ccccc2)c2ccccc2)CC1	/	-6%	1%	6%	/	/	/	-22%
O=C(NNc1ccc(Cl)nn1)c1ccc(Cl)cc1	-2.5%	0%	-2%	30%	-12%	0%	10%[46.1 µM]	-5%
Clc1ccccc1CSc1nnc(-c2cccnc2)n1Cc1ccco1	-1.1%	-11%	-4%	-2%	12%	?	12%	-1%
Cc1oc2c(CN3CCCC3)c(O)ccc2c(=O)c1Oc1ccccc1Br	-11%	-3%	1%	7%	6%	-7%	25%	-10%
Cc1ccc(-c2n[nH]c(=O)c3ccccc23)cc1S(=O)(=O)Nc1ccccc1	-7.3%	2%	3%	17%	?	-24%	?	-95%
O=C1CCCC(O)=C1C1C2=C(CCCC2=O)OC2=C1C(=O)CCC2	/	4%	1%	-26%	/	-19%	-4%[46.1 µM]	-3%
COc1cc(/C=C/C(=O)OCC(=O)Nc2oc(C)c3c(C)n[nH]c(=O)c23)ccc1OC(F)F	/	/	8%	-14%	/	-3%[46.1 µM]	?	-13%
O=C(Nc1ccc(Cl)cc1)Nc1cccc(C(=O)O)c1	/	1%	-1%	2%	/	0.33µM*	0.92µM*	8.9µM*
O=C(Nc1ccon1)C1CCN(S(=O)(=O)c2cccs2)CC1	1.1%	-4%	3%	-4%	-5%	-4%	-9%	?
Cc1ccc(C(=O)Nc2ncn[nH]2)cc1	/	-10%	0%	5%	/	20%	7%	12%
COc1ccc(C2CC(c3ccc(Br)cc3)=NN2C(=O)CSC2=NN3CCCC(=O)N=C3S2)cc1 (stereo not given)	/	0%	-3%	-8%	/	/	/	-15%
Cc1ccc(NC(=O)[C@H](CSCc2ccccc2)N2Cc3ccccc3C2=O)cc1	-1.8%	/	/	/	-15%	0%[46.1 µM]	-1%[46.1 µM]	34%[activator]
CC(C)(CN1CCCC1)NS(=O)(=O)c1ccc(Cl)cc1	/	?	-1%	-5%	/	?	?	-2%
S=c1[nH]nc(CNc2cccc(Cl)c2)o1	/	6%	19%	-11%	/	-23%	-27%[46.1 µM]	-10%
CCCn1c(C)cc(-c2csc(N)n2)c1C	-7.8%	5%	2%	-12%	?	2%	-3%	17%
CC(=O)c1c(C)[nH]c(C(=O)N(CCc2ccccc2)Cc2ccccc2)c1C	/	/	1%	-3%	/	?	?	8%
CC(C)C(=O)NC(C)C(c1cccs1)N1CCN(C)CC1 (stereo not given)	-3.8%	-2%	-9%	4%	-1%	1%	18%	-20%
CSCC[C@H](NC(=O)OC(C)(C)C)C(=O)N/N=C/c1cccc2nccnc12	/	-3%	-1%	10%	/	2%	1%	?
CCCN1CN(Cc2ccccc2)CC2=C1CC(C)(C)CC2=O	0.3%	-4%	8%	-7%	-7%	-29%	-4%	0%
COc1ccc(OC)c(C2CC(=O)c3c([nH]c(C(=O)OCC4CCCO4)c3C)C2)c1 (stereo not given)	-7.3%	-54%	5%	5%	15%	/	/	?
CCC(=O)Nc1nnc(Sc2ccc(N(C)C)cc2)s1	1.3%	1%	-1%	-19%	-12%	-8%	0%	-5%
CCOc1cc(CNc2ccc3c(c2)CCC3)ccc1O	5.5%	-5%	3%	-12%	-6%	-1%	0%	-20%
COCCCn1c(C)nnc1SCC(=O)Nc1cccc(C)c1	/	6%	-5%	4%	/	/	/	-7%
COc1ccc(-n2nc3c(c2NC(=O)C2CCCC2)CS(=O)(=O)C3)cc1	/	12%	1%	2%	/	5%	-13%	-15%
O=C(/C=C/c1ccccc1Cl)NC(=S)Nc1ccccc1C(=O)NC1CCCCC1	1.5%	-1%	1%	-6%	4µM*	5%	0%	/
O=C(C#Cc1cccc([N+](=O)[O-])c1)c1ccccc1	8.9µM*	-187%	-40%	/	-21%	/	/	/
N#CC(C(=O)C1CCCCC1)c1nc2ccccc2[nH]1 (stereo not given)	-2.5%	5%	-3%	7%	-6%	-20%	1%	/
O=S(=O)(c1ccccc1C(F)(F)F)N1CCC(n2cnc3ccccc32)CC1	1.4%	3%	-9%	1%	6%	-16%	-26%	?
COc1cccc(-c2noc(-c3ccc(Cl)nc3)n2)c1	/	-4%	0%	6%	/	?	?	1%
CC(C)(C)C(=O)Cn1nc(Cl)nc1Cl	/	/	-1%	7%	/	14%	11%[46.1 µM]	-12%
O=C(NC1CC1)C1=C[C@H](c2csc3ccccc23)C[C@H](OCCCCO)O1	/	-4%	0%	-3%	/	/	/	-6%
CCOC(=O)Cn1c(=O)n(-c2ccccc2OC)c2nc(-c3ccccc3)nc(C(N)=O)c21	-9.7%	/	/	/	?	-15%[46.1 µM]	/	?
CCOC(=O)C1CCCN(Cc2nc(Cc3cccc(F)c3)no2)C1 (stereo not given)	/	-6%	1%	0%	/	/	/	0%
Continued.
SMILES	Cruzain inh Det	NS1 inh	SARS PLpro yeast	RE007 growth inh	Cruzain noTriton	Lassa entry inh	MARV entry inh	2A StopGo
CCc1nn(C(CC)C(=O)NCc2cccs2)c(=O)c2cc3occc3n12 (stereo not given)	/	3%	?	5%	/	-7%[46.1 µM]	-7%[46.1 µM]	17%
Cc1cc2nnn(-c3nnc(-c4ccccc4)c4ccccc34)c2cc1C	-0.5%	14%	2%	4%	-2%	7%	19%	-29%
CC1=CCC(C(=O)O)(C(=O)N/N=C/c2cccnc2)C(c2ccccc2)C1 (stereo not given)	/	/	0%	-14%	/	-4%	12%[46.1 µM]	0%
CCc1ccc2c(c1)c(=O)c(S(=O)(=O)c1ccccc1)cn2CC(=O)Nc1ccc(OC)cc1	-5.2%	/	/	/	-20%	-20%[46.1 µM]	-26%[46.1 µM]	-8%
O=C1CCCS(=O)(=O)c2ccccc21	/	7%	1%	-13%	/	-1%	4%[46.1 µM]	113%[activator]
